Screens deposited in PubChem BioAssay by Johns Hopkins Ion Channel Center.
KCNQ2 enhance – potentiators of rat KCNQ2 potassium channel; B-score at 10 µM; O88943; 310,000 compounds, 0.54% hits; CHO-K1 KCNQ2, FluxOR thallium flux fluorescence; stronger effect = higher value;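 active means fluorescence ratio B-score at least 3 SD of library B-scores, with initial fluorescence B-score within 3 SD, cut at about 5.3 in these data; same plate scores as AID 2156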;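 further: B-score of peak minus minimum over baseline fluorescence ratio after K+ and Tl+ stimulus; positive B-score means potentiation of KCNQ2 with more thallium influx and brighter signal; only the inactives scoring about 0 or higher are listed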
Target sequence (O88943 whole entry, looked up): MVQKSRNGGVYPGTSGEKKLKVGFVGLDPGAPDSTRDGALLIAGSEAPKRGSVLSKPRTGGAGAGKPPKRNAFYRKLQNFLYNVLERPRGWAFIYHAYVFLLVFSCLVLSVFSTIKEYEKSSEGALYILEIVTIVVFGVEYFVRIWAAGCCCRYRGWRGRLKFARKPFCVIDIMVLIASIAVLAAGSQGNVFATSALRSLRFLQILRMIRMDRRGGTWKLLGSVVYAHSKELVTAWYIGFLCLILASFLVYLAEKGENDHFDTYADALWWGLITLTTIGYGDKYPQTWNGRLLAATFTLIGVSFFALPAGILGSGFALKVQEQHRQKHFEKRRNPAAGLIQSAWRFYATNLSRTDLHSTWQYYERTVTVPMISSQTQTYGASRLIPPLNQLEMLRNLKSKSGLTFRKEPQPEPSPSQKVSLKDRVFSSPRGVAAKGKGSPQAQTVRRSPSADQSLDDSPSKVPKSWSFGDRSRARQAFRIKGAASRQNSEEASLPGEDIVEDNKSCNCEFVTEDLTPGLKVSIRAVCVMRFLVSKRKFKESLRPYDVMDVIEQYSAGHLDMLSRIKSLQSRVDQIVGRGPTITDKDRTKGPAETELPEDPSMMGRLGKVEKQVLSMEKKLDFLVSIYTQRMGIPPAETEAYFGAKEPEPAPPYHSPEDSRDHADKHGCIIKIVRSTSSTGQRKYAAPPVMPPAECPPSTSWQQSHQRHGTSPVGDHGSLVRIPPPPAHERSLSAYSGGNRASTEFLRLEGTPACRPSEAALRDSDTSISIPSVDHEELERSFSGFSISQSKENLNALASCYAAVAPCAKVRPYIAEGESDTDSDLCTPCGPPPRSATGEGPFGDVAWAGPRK
KCNQ2 enhance baseline – second read-out of KCNQ2 enhance, no call of its own (marks repeat the call); B-score; compound at 10 µM; measured here: initial fluorescence intensity artifact check;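 brightness before thallium and not channel activity; 0 = typical well and far values either way flag optical interference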
An asterisk follows results filed as active. A portion of the library. The share of hits here may be higher or lower than overall.

Order of values: KCNQ2 enhance baseline | KCNQ2 enhance
COc1ccc(NC(=O)c2ccc(COCC(F)(F)C(F)F)cc2)cc1
→ -0.01 | 3.5
CC1CCN(S(=O)(=O)c2nnc(NC(=O)c3ccccc3Br)s2)CC1
→ 0.39 | 1.3
Nc1cc(Cl)ccc1Oc1ccc(Cl)cc1
→ -0.53 | 2.9
Cc1ccc(-c2nn(CCC(N)=O)c(=O)c3ccccc23)cc1
→ 2.8 | 0.13
CCOC(=O)C1C(=O)NC(c2ccccc2)=NC1c1ccc(Cl)cc1 (configuration not stated)
→ -0.78 | 2.9
C/C(=N\NC(=O)c1ccn(C)n1)c1cccc(NC(=O)c2ccc(C)s2)c1
→ 0.01 | 1.9
CCOC(=O)c1cnn2c(C(F)F)cc(C3CC3)nc12
→ 0.57 | 1.6
Cc1c(Br)c([N+](=O)[O-])nn1CCCC(=O)Nc1sc2c(c1C(N)=O)CCC(C)C2 (configuration not stated)
→ 1.1 | 1.5
O=S(=O)(/N=C(/NS(=O)(=O)c1ccccc1)c1ccccc1)c1ccccc1
→ -0.38 | 0.15
COc1ccc(-c2cc(C(=O)N3CCN(c4cccc(C)c4C)CC3)c3ccccc3n2)cc1OC
→ 1.4 | 0.54
O=C(O)c1cn(Cc2cccnc2)c(=O)c2ccccc12
→ -0.02 | 0.06
O=C(Nc1nnc(SCc2ccccc2)s1)c1cc2c(s1)CCCC2
→ 0.27 | 0.06
COc1cc(O)c(C(CC(=O)N2CCCC2)c2ccc3c(c2)OCO3)c(OC)c1 (configuration not stated)
→ -0.81 | 0.52
CCn1c(SCC(=O)Nc2cc(C)on2)nc2sc3c(c2c1=O)CCCC3
→ 0.01 | 0.77
Cn1cc(Br)c(C(=O)NC2CCCCC2)n1
→ 0.05 | 0.04
COc1ccc(-c2csc(-c3[nH]cnc3N)n2)cc1
→ -1 | 0.08
Cc1cccc(C(=O)N2CCNC(=O)C2CC(=O)Nc2cccc(Cl)c2)c1 (configuration not stated)
→ -1.3 | 0.02
O=C(O)c1cc(-c2ccc(-c3ccc(F)cc3)o2)nc2ccccc12
→ 1.3 | 0.87
COc1cccc(N2CCN(C(=O)c3ccc(CS(=O)Cc4ccccc4Cl)o3)CC2)c1 (configuration not stated)
→ -0.61 | 0.81
CCOc1ccc(C(=O)NCC(C)C)cc1
→ -0.05 | 0.52
COc1ccc(-c2cc(C(=O)Nc3cccnc3Cl)no2)cc1OC
→ 0.19 | 0.85
Cc1ccc(-c2cc3nn(-c4ccccc4)c(N)c3c(=O)o2)cc1
→ 0.03 | 0.66
O=C(O)C1C2C=CC(O2)C1C(=O)Nc1cccc(C(F)(F)F)c1 (configuration not stated)
→ 0.96 | 0.19
CC(Sc1nc(N2CCOCC2)nc(N2CCOCC2)n1)C(=O)Nc1ccccc1 (configuration not stated)
→ 1.3 | 1.1
O=[N+]([O-])c1cccc(/C([O-])=C(/C(=S)Nc2cccc3ccccc23)[n+]2ccccc2)c1
→ 0.14 | 0.23
O=C(Nc1ccc(N2CCCCC2)cc1)c1ccc(F)cc1
→ -1.4 | 0.37
Cc1ccc(OCc2cc(C(=O)N3CCN(c4ccccc4)CC3)no2)cc1C
→ -0.26 | 0.48
O=C1C2C3C=CC(CC3)C2C(=O)N1c1ccc2c(c1)OCO2 (configuration not stated)
→ -0.43 | 0.66
NC(=O)c1c(N)sc2c1CCCC2
→ -0.03 | 0.85
C=CCN(c1ccc(C(=O)Nc2cc(C)cc(C)c2)cc1)S(C)(=O)=O
→ 3.1 | 0.3
O=C1NCCCCC1NS(=O)(=O)c1cccc2ccccc12 (configuration not stated)
→ 1.3 | 0.3
Cc1nnc(NC(=O)CSc2n[nH]c(-c3ccccc3)n2)s1
→ -0.91 | 0.45
CN(CC(=O)N1CCc2ccccc2C1)c1ccccc1
→ 0.68 | 0.09
CCCN(C(=O)Cc1nc(N)n[nH]1)C1(C(=O)Nc2c(C)cccc2C)CCCCC1
→ 0.59 | 0.43
N#C/C(=C/c1ccc(C(=O)O)cc1)C(=O)Nc1ccccc1
→ 0 | 0.62
Cc1cccc(OCC(=O)N/N=C2/SCC(=O)N2Cc2ccco2)c1
→ 0 | 0.08
O=C(CO)N/N=C/c1cccc(Cl)c1Cl
→ -0.88 | 0.59
COc1ccc(N2CC(C(=O)N3CCN(C)CC3)CC2=O)cc1 (configuration not stated)
→ -0.35 | 0.04
C/C(CC(=O)Nc1ccc(Cl)c(Cl)c1)=N\NC(=O)C(=O)N1CCCCC1
→ -1.6 | 0.6
CC(=O)NC1=C(N(C)C2CCS(=O)(=O)C2)C(=O)c2ccccc2C1=O (configuration not stated)
→ 0.05 | 1.4
CC(C)(C)OC(=O)N1CCC(CC2CC(c3ccncc3)=NO2)(C(=O)O)CC1 (configuration not stated)
→ -0.27 | 0.2
COc1ccc(NC(=O)CN(C)C(=O)CSCc2c(C)noc2C)cc1
→ 0.31 | 0.7
O=C(c1ccco1)N1CCN(CCCCOc2ccc(F)cc2)CC1
→ -1.4 | 0.84
Oc1ccc(CNc2ccccc2F)c2cccnc12
→ 0.2 | 0.26
Cc1ccc(C)c(C(=O)OCC(=O)Nc2ccc(N3CCOCC3)cc2)c1
→ 0.29 | 0.26
COc1cc2[nH]c3c(=O)n(CCN(C(C)C)C(C)C)cnc3c2cc1OC
→ -0.81 | 1.8
O=C(Nc1nc(-c2ccccn2)cs1)c1ccco1
→ 2.3 | 0.1
S=c1[nH]nc(-c2ccco2)n1-c1ccc(Br)cc1
→ 0.55 | 0.08
C/C(N)=C(/C#N)C(=O)COC(=O)CCCNC(=O)c1ccc(Cl)cc1
→ 1.8 | 0.51
CCc1ccc(NC(=O)C(CC)Sc2nc3ccsc3c(=O)n2CCC(=O)O)cc1 (configuration not stated)
→ 0.9 | 0.64

Copied from the entries so far, two compounds:
Order of values: KCNQ2 enhance baseline | KCNQ2 enhance
CC(C)(C)OC(=O)N1CCC(CC2CC(c3ccncc3)=NO2)(C(=O)O)CC1 (configuration not stated)
→ -0.27 | 0.2
COc1ccc(NC(=O)CN(C)C(=O)CSCc2c(C)noc2C)cc1
→ 0.31 | 0.7

The listing continues.
Order of values: KCNQ2 enhance baseline | KCNQ2 enhance
Cc1cccc(OCc2nnc(SCC(=O)Nc3cccc(C(=O)N4CCOCC4)c3)o2)c1C
→ 0.42 | 0.61
COc1ccc(C2NC(=O)c3ccccc3O2)cc1OC (configuration not stated)
→ -1.2 | 0.86
CN(c1ccccc1)S(=O)(=O)c1ccc2c(c1)oc(=O)n2C
→ -1.2 | 0.4
O=C(CNC1=NCCC1)c1ccc(Cl)cc1
→ 0.9 | 0.54
CCCCC(=O)Nc1cc(N(C)C)nc2ccccc12
→ -0.2 | 1.6
CCOc1cc2[nH]c(=O)n(CCCCC(=O)N3CCCCCC3)c(=O)c2cc1OCC
→ -0.73 | 0.88
CCOC(=O)CN1CC23C=CC(O2)C(C(=O)NCc2ccc(F)cc2)C3C1=O (configuration not stated)
→ -1.9 | 0.58
O=C(CSc1ccc(-c2ccccn2)nn1)c1ccc(F)cc1
→ -0.09 | 0.62
CC(c1ccccc1)N1C(=O)c2cccnc2C1=O (configuration not stated)
→ -0.6 | 0.03
CC(C)Oc1ccc(Cn2c(=O)sc3ccccc32)cc1
→ -0.2 | 0.18
O=C(NNC(=O)C1CC1c1ccccc1)c1cccc([N+](=O)[O-])c1 (configuration not stated)
→ -0.55 | 5.1
O=C(CSc1ccsc1[N+](=O)[O-])N1CCN(c2ccc(Cl)cc2)CC1
→ -0.71 | 1.1
Cc1ccc(Nc2nnc(SC(C)C(=O)NCC3CCCO3)s2)cc1C (configuration not stated)
→ 0.94 | 0.21
Cc1cc(C)cc(N(CCC#N)C(=O)COC(=O)C2CCN(S(=O)(=O)c3ccc(C)c(C)c3)CC2)c1
→ 0.51 | 0.72
COc1ccc(-c2cc(C(F)(F)F)nc(SCCC(=O)Nc3cc(C)on3)n2)cc1
→ -0.89 | 0.21
N#CCCn1ncn(-c2ccccc2)c1=S
→ -1.4 | 1.5
O=C(Nc1cccnc1)c1ccc(S(=O)(=O)c2ccccc2)cc1
→ -0.02 | 0.63
O=C1CCC(=O)N1CN(C(=O)c1ccco1)c1ccc(Cl)c(Cl)c1
→ -0.5 | 0.22
Cc1cc(C)nc(SCC(=O)Nc2ncc(Cc3cccc(Cl)c3Cl)s2)n1
→ 0.7 | 0.1
Cc1cc(C)c(C)c(S(=O)(=O)NCCN2CCOCC2)c1C
→ -0.81 | 1.1
CSc1ncccc1C(=O)OCC(=O)C(C)(C)C
→ 0.09 | 0.32
Cn1cc(/C=N/NC(=O)c2cccc([N+](=O)[O-])c2)c2ccccc21
→ -1.4 | 0.03
COC(=O)c1sc(NC(=O)c2cc3c(s2)CCCC3)nc1C
→ 0 | 0.25
CC(C)(C)c1ccc(S(=O)(=O)Nc2ccc(C(=O)N3CCCC3)cc2)cc1
→ 1.2 | 0.77
CCCCn1c(SCC(=O)Nc2ccccc2C(F)(F)F)nc2ccsc2c1=O
→ -3.2 | 0.45
Cc1cccc2nc3ccccc3nc12
→ -1.1 | 0.05
CCOC(=O)c1ccc(NC(=O)CCC(=O)OC)cc1
→ 0.6 | 0.16
Cc1cc(NC(=O)/C=C/c2ccccc2)c(C(C)C)cc1O
→ -0.72 | 0.01
CC1CCCCC1NC(=O)CCN1C(=O)C2C3C=CC(C3)C2C1=O (configuration not stated)
→ -0.36 | 1.6
O=c1cc(CO)oc(C(Nc2ccccn2)c2ccc(F)cc2)c1O (configuration not stated)
→ -3.4 | 1.5
CC(C)CN(C(=O)CN1CCN(S(=O)(=O)c2ccccc2)CC1)c1c(N)n(CC(C)C)c(=O)[nH]c1=O
→ -0.12 | 0.47
CCOc1ccc(-n2ccnc(SCC(=O)NC3CCCC3)c2=O)cc1
→ 0.16 | 0.81
Cc1ccc(C(=O)Nc2cc(=O)n(C)c(=O)n2C)o1
→ -2.2 | 1.3
Cc1nn(Cc2ccc(Cl)cc2)c(C)c1NC(=O)c1c(-c2ccccc2)noc1C
→ -1.3 | 0.9
Cc1[nH]n(C(N)=S)c(=O)c1N=Nc1cccc(C(F)(F)F)c1
→ 1.4 | 0.29
Cn1c(=O)c(C#N)c(-c2ccc(F)cc2)c2cc(C(=O)c3cc(Cl)cc(Cl)c3O)cnc21
→ -0.86 | 2.9
CC(C)(C)n1cc(S(=O)(=O)c2ccccc2)[nH]c1=O
→ 3.8 | 0.01
COc1cccc(C2C(C(=O)OCc3ccccc3)=C(C)Nc3ncnn32)c1OC (configuration not stated)
→ -0.09 | 0.19
O=C(OCCCOC(=O)c1ccc([N+](=O)[O-])o1)c1ccc([N+](=O)[O-])o1
→ 0.44 | 0.29
Cc1cccc(OCc2nc3ccccc3c(=O)n2N)c1
→ 1.2 | 0.21
Cc1ccc(S(=O)(=O)N2CCOCC2)cc1C(=O)O
→ 0 | 0.19
CCOC(=O)C1(CCOc2ccccc2)CCN(Cc2ccc(COC)o2)CC1
→ 0.1 | 0.32
N#CCCN1CCN(C2=NC(=O)/C(=C\c3cccs3)S2)CC1
→ -0.63 | 1.8
Cc1[nH]n(-c2ccccc2)c(=O)c1C=Nc1cnc2ccccc2c1
→ -0.18 | 1.1
CC(C)C[C@@]12C(=O)N(c3cccc(F)c3)C(=O)N1[C@H](c1ccc(F)cc1)[C@@H]1C(=O)N(C3CCCCC3)C(=O)[C@@H]12
→ 0.55 | 0.05
CN(C)c1ccc(C2/C(=C(/O)c3ccccc3)C(=O)C(=O)N2CCCC(=O)O)cc1 (configuration not stated)
→ 0.3 | 0.06
Cc1ccc(NC(=S)NCc2ccc(S(N)(=O)=O)cc2)c(C)c1
→ 0.16 | 0.24
Cc1cc2oc(=O)cc(Cn3ccnc3)c2cc1C
→ -0.46 | 0.6
Cc1cc(C)c(C)c(S(=O)(=O)NCc2cccnc2)c1C
→ 0.74 | 1.1
COc1ccc(NCc2cc(=O)oc3cc(NC(C)=O)ccc23)cc1
→ 0.63 | 1.4

(next part)
Order of values: KCNQ2 enhance baseline | KCNQ2 enhance
N#CC(C#N)=C1c2cc(S(=O)(=O)NCCO)ccc2-c2ccc(S(=O)(=O)NCCO)cc21
→ -0.09 | 0.12
C=CCn1cc(/C=C2\SC(N3CCOCC3)=NC2=O)c2ccccc21
→ 1.9 | 0.97
COc1ccc(-n2c(=O)c3ccccc3n(CC(=O)NC3CCCCC3)c2=O)cc1
→ -0.71 | 0.29
Cc1ccc(N(C(=O)CNC(=O)c2ccco2)C(C(=O)NC2CCCCC2)c2ccncc2)c(C)c1 (configuration not stated)
→ 0.98 | 0.01
CNC(=O)C1CCN(S(=O)(=O)c2c(C)noc2/C=C/c2ccccc2F)CC1
→ -1.3 | 2.7
CCCc1cc(-n2ccnc2C)n2c(nc3ccccc32)c1C#N
→ 0.03 | 0.23
CC(C)Oc1ccccc1C1CC(=O)Nc2cc3c(cc21)OCO3 (configuration not stated)
→ -0.14 | 2.1
CC12C(=O)N(c3nccs3)C(=O)C1C1C=CC2C1 (configuration not stated)
→ -0.16 | 0.1
CN(C(=S)NCCN1CCOCC1)C(c1ccccc1)c1ccccc1
→ 0.72 | 0.11
Cc1cc(C(=O)OCC(=O)Nc2ccccc2)c(C)o1
→ 0.51 | 1.4
Cc1ccc(Cl)cc1NC(=S)N1CCCCCC1
→ -0.88 | 0.2
COc1cc(NC(=O)NC2Cc3ccccc3C2)cc(OC)c1
→ 0.13 | 0.01
COc1ccc(N/C=C/C(=O)C(F)(F)F)cc1
→ 1.6 | 1.1
O=C(CSc1nc2ccccc2c(=O)n1NC(=O)Cc1ccccc1)NCCc1ccccc1
→ 3.3 | 0.92
CC(=O)C1=C(c2ccccc2)NC(=O)NC1c1ccccc1 (configuration not stated)
→ -0.63 | 0.49
CN(C)c1ccc(NC(=O)CN2CCC(C(=O)c3ccc(F)cc3)CC2)cc1
→ -0.82 | 0.58

Reprinted at random: two records from the list, in no set order.
Order of values: KCNQ2 enhance baseline | KCNQ2 enhance
Cc1cc(C)nc(SCC(=O)Nc2ncc(Cc3cccc(Cl)c3Cl)s2)n1
→ 0.7 | 0.1
COc1ccc(N/C=C/C(=O)C(F)(F)F)cc1
→ 1.6 | 1.1
